RecA intein inh = inhibitors of M. tuberculosis RecA intein splicing. cell-free RecA intein splicing, fluorescence. inhibition, %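 (about 9 µM by stock and volumes)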. actives 0.75% (n = 290,000). AID 2221; in the data active means inhibition above about 30%; inconclusive means no clear call, values can overlap the other calls;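 further: 0% = vehicle wells and 100% = reference inhibitor control wells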
Target sequence (P9WHJ3 whole entry, looked up): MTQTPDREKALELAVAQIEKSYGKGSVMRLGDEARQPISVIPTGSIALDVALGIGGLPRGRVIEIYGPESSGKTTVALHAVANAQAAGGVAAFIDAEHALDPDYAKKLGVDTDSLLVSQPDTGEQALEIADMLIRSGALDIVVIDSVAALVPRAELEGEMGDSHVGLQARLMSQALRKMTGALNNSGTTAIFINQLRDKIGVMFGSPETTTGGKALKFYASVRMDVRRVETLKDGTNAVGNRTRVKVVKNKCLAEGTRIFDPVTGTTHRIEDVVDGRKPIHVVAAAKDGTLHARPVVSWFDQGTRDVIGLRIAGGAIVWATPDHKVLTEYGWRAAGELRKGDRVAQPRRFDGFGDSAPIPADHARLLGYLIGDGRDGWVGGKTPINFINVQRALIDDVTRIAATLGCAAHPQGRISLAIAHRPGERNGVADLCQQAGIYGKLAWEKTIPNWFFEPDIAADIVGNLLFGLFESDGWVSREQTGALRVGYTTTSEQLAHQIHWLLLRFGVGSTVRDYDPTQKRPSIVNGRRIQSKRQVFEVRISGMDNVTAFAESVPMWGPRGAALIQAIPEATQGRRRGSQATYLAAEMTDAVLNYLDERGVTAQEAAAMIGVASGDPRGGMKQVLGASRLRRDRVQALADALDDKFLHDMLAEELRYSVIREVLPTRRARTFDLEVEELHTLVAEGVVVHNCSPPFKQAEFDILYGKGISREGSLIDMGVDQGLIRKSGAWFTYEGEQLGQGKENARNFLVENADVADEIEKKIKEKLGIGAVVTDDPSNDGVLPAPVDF
YopH PTP inh = blocks Yersinia enterocolitica YopH tyrosine phosphatase; fluorescence Ex485/Em525; inhibition, %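 (about 10 µM by stock and volumes)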; actives 0.16% (n = 140,000);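 active means inhibition of 50% or more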;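 further: controls were vehicle for no effect and minimum signal wells for full effect; inactives centre near -20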
Mtb betalactam = beta-lactam sensitization of Mtb H37Rv; M. tuberculosis H37Rv growth with meropenem, percent inhibition; hits of this screen are not shown here; inhibition, % at 25 µM; actives 0.27% (n = 330,000);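 active means about 74% or more and at least 40 points above the plate without the antibiotic, then above 30% in a dose series; inconclusive means first-round hits that could not be retested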;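 further: growth measured after seven days incubation then overnight dye step; 0% = bacteria only wells and 100% = bacteria with antibiotic; twin plates without the antibiotic show which effects depend on it; some results filed as inactive read as strong as hits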
Arbovirus anti = antivirals against arbovirus infection | arbovirus infection cell-based antiviral screen | inhibition, % at 10 µM | actives 0.37% (n = 200,000) | AID 1251;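 active means inhibition from about 30%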;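 further: bluetongue infection of BSR cells; cell survival read as ATP light after 72 h; 0% = infected wells without compound and 100% = uninfected wells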
Mtb H37Rv = M. tuberculosis H37Rv growth inhibitors, H37Rv strain (AID 1626); inhibition, % at 10 µM; hits with a dose series show IC50 in µM; M. tuberculosis H37Rv growth inhibition; higher % means a stronger effect; actives 0.95% (n = 220,000);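 active means confirmed in a dose series; inconclusive means inhibition above 80% but not taken into the dose series; inactive means below 80% or under 30% at every dose of the series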;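 further: bacteria incubated seven days before Alamar blue readout; 0% = bacteria only wells and 100% = bacteria with antibiotic wells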
Arbovirus anti repeat = also measured in Arbovirus anti; calls as there; inhibition, %; measured here: 10K subset replicate screen; many hits read low in the repeat;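 first of two repeat runs on a subset; 0% = infected and 100% = uninfected wells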
The depositor's hits bear a star; ? = inconclusive; / = not tested or not shown.

SMILES	RecA intein inh	YopH PTP inh	Mtb betalactam	Arbovirus anti	Mtb H37Rv	others
O=S(=O)(c1ccc(Oc2ccc(Br)cc2F)nc1)N1CCCCC1	0.8	-16	4	-3	-4%
Cn1c(O)c(C=NC(CC(N)=O)C(=O)O)c(=O)n(C)c1=O (configuration not stated)	0.1	-60	/	-7	-18%
CC(=O)NCCCC(=O)NN1C(=S)N(Cc2ccccc2)C(=O)C1CC(=O)Nc1cccc(C)c1 (configuration not stated)	3.8	/	-3	1	-2%
CC(O)CNc1nc2c(c(=O)n(Cc3ccccc3)c(=O)n2C)n1C (configuration not stated)	0.6	/	1	/	/
CCCOc1c(Br)cc(/C=N/O)cc1OC	-6.8	-10	11	-16	4%
O=C(CSc1ccc(Br)cc1)Nc1ccc(N2CCOCC2)cc1	-2.1	/	5	/	/
Cc1cc(=O)[nH]c2cc(O)ccc12	-2.9	-64	93	-7	2%
OCCCNC(=S)NC1CCCC1	0.3	/	-5	-1	-1%
COc1ccc(N2CCN(C(=O)CSc3nnc(-c4cc5ccccc5cc4O)n3C)CC2)cc1	/	9	19	13	7%
CN1C(=O)c2ccccc2N(C)C1c1cccc(O)c1 (configuration not stated)	-13	/	-3	/	/
COc1cc(O)cc2c1C(=O)O[C@@H](C)CCCC(=O)CCCCC2	0.0	/	0	/	/
CCCC(=O)NNC(=O)CCC(=O)Nc1ccccc1Cl	-4.0	/	0	18	3%
Cc1ccc(C(=O)N(C)CC(=O)Nc2ccc(N3CCOCC3)cc2)s1	-4.7	/	-5	/	/
CCc1ccc(OCCCC(=O)NCc2ccccc2)cc1	1.4	-30	6	-13	10%
CCOc1ccccc1OCC(=O)OCC(=O)c1c(C)[nH]c2ccccc12	3.3	/	7	/	/
Cc1nn(C)c(Cl)c1CN1CCN(CCC(C)C)C(CCO)C1 (configuration not stated)	-3.0	/	1	/	-10%
Cc1ccc(CNC(=O)c2ccc(CS(=O)(=O)c3ccccc3C)o2)cc1	3.1	/	4	/	/
N#C/C(C(N)=O)=C1/CCCN1Cc1ccccc1	1.4	/	-1	/	/
Cc1ccc(CN2C(=O)N/C(=C/c3ccc(-c4ccc(C(=O)O)cc4)o3)C2=O)cc1	-28	/	45	/	5%
CC(C)Oc1ccc(CN=C(N)N=C(N)N)cc1Cl	-4.2	-34	-8	0	4%

Ordered by length of the SMILES (low to high): part of the list above
SMILES	RecA intein inh	YopH PTP inh	Mtb betalactam	Arbovirus anti	Mtb H37Rv	others
OCCCNC(=S)NC1CCCC1	0.3	/	-5	-1	-1%
Cc1cc(=O)[nH]c2cc(O)ccc12	-2.9	-64	93	-7	2%
CCCOc1c(Br)cc(/C=N/O)cc1OC	-6.8	-10	11	-16	4%
N#C/C(C(N)=O)=C1/CCCN1Cc1ccccc1	1.4	/	-1	/	/
CC(C)Oc1ccc(CN=C(N)N=C(N)N)cc1Cl	-4.2	-34	-8	0	4%
CN1C(=O)c2ccccc2N(C)C1c1cccc(O)c1 (configuration not stated)	-13	/	-3	/	/
O=C(CSc1ccc(Br)cc1)Nc1ccc(N2CCOCC2)cc1	-2.1	/	5	/	/
O=S(=O)(c1ccc(Oc2ccc(Br)cc2F)nc1)N1CCCCC1	0.8	-16	4	-3	-4%
Cn1c(O)c(C=NC(CC(N)=O)C(=O)O)c(=O)n(C)c1=O (configuration not stated)	0.1	-60	/	-7	-18%
CC(O)CNc1nc2c(c(=O)n(Cc3ccccc3)c(=O)n2C)n1C (configuration not stated)	0.6	/	1	/	/
CCOc1ccccc1OCC(=O)OCC(=O)c1c(C)[nH]c2ccccc12	3.3	/	7	/	/
Cc1ccc(CNC(=O)c2ccc(CS(=O)(=O)c3ccccc3C)o2)cc1	3.1	/	4	/	/
COc1ccc(N2CCN(C(=O)CSc3nnc(-c4cc5ccccc5cc4O)n3C)CC2)cc1	/	9	19	13	7%
Cc1ccc(CN2C(=O)N/C(=C/c3ccc(-c4ccc(C(=O)O)cc4)o3)C2=O)cc1	-28	/	45	/	5%
CC(=O)NCCCC(=O)NN1C(=S)N(Cc2ccccc2)C(=O)C1CC(=O)Nc1cccc(C)c1 (configuration not stated)	3.8	/	-3	1	-2%

(continued)
SMILES	RecA intein inh	YopH PTP inh	Mtb betalactam	Arbovirus anti	Mtb H37Rv	others
Cc1noc(C)c1C(=O)OCC(=O)c1ccc[nH]1	-0.5	-36	-11	1	-12%
CCN1CCN(CC(=O)Nc2cc(C)c(C)cc2[N+](=O)[O-])CC1	-5.0	-39	5	-5	-6%
COc1ccccc1Oc1ccc2c(c1)C(=O)N(c1ccccc1)C2=O	1.3	-35	-3	-6	-12%
CC1=CC(C)C2(CO)COC(c3ccccc3O)C1C2C (configuration not stated)	0.3	-18	-2	21	-11%
Cc1ccc(NCc2nnc3n2CCCCC3)c(C)c1	0.7	/	-9	7	-1%
COc1ccc(NC(=O)c2ccc(COCC(F)(F)F)cc2)cc1OC	-0.7	-23	-7	-15	14%
O=C(/C=C/c1ccc(Br)cc1)c1ccc(NC(=O)c2ccco2)cc1	1.6	-7	8	1	11%
COc1cc(NC(=O)c2cnc(NCc3ccccc3)nc2C)cc(OC)c1OC	-2.0	/	-2	/	/
CCOC(=O)c1cccc(NC(=O)CCCn2c(=O)c3cccn3c3cccnc32)c1	-0.5	/	-10	/	/
CC(=O)Nc1ccc(Nc2ccccc2)cc1	-0.9	/	-7	/	-4%
O=C(c1ccc(Br)cc1)N(c1ccccn1)C1CCCCC1	1.4	/	-5	/	2%
COc1ccc(C(=O)/C=C/c2ccc(OC)c(CN3CCOCC3)c2)cc1	3.7	-21	0	0	0%
CCC(C(=O)OCC(=O)Nc1c(Cl)cccc1Cl)c1ccccc1 (configuration not stated)	2.9	-14	3	3	4%
Cc1ccc(NC(=O)C(c2ccccc2)c2ccccc2)nc1	5.2	/	4	/	/
CC(=O)Nc1cccc(OCC(O)Cn2cnc3ccccc32)c1 (configuration not stated)	-3.1	-11	-2	12	-9%
CC(C)(C)c1ccc(CNC(=O)C2CCCN2C(=O)Nc2ccccc2)cc1 (configuration not stated)	-1.5	/	-1	/	/
CN(Cc1ccccc1)C(=C(Cl)Cl)/C(=C1/NCCN1C)[N+](=O)[O-]	2.2	/	-1	-2	-3%
CC(=O)OC1COC(n2c(O)c(N=NC(N)=S)c3ccccc32)C(OC(C)=O)C1OC(C)=O (configuration not stated)	-2.6	/	6	/	/
NC(=O)Cc1nc2scc(-c3ccccc3)c2c(=O)[nH]1	-3.3	/	-1	3	5%
CCCn1c(SCC(=O)Nc2nnc(CC)s2)nnc1-c1ccncc1	-2.3	/	-3	0	1%
Cc1ccc(S(=O)(=O)N2CCN(C(=O)CN3CCOCC3)C2C(C)C)cc1 (configuration not stated)	-0.8	-33	0	2	-1%
CC(=O)Nc1ccc(S(=O)(=O)N2CCCC2C(=O)Nc2ccc(F)cc2)cc1 (configuration not stated)	-1.8	/	2	/	/
COc1ccc(Cl)cc1N(CC(=O)N/N=C/c1ccc(OCC(N)=O)cc1)S(C)(=O)=O	-3.1	/	-2	1	-5%
CCN(/C=N/c1sc2c(c1C#N)CCCCC2)CC	10	9	-7	-6	11%
Cc1ccc(NC(=O)c2sc(Cl)nc2-c2ccccc2)cc1	-0.2	-18	-4	-4	-4%
COCCn1c(=NC(=O)CN2C(=O)CCC2=O)sc2cc(S(N)(=O)=O)ccc21	-1.6	-34	7	1	-9%
CCOC(=O)Cn1ccc(NC(=O)COc2ccc(F)cc2)n1	-3.6	/	-1	/	/
N#Cc1c2n(c3c(=O)n(Cc4ccccc4Cl)cnc13)CCCC2	-0.9	-44	?	3	3%
O=S(=O)(c1cccc2cccnc12)N1CCN(Cc2ccc3c(c2)OCO3)CC1	2.3	-26	-10	4	-6%	Arbovirus anti repeat=0
COc1ccc(NC(=O)COC(=O)c2ccc(OCc3ccccc3Cl)c(OC)c2)c(OC)c1	-2.4	-16	4	-10	2%
COc1ccc(CCNC(=O)C(=O)NCCC2CCCCN2S(=O)(=O)c2cccs2)cc1 (configuration not stated)	-2.5	/	0	/	/
CC(C)(C)C(=O)CN1C(=O)NC2(CCCc3ccccc32)C1=O (configuration not stated)	-1.0	/	-2	/	/
CCOc1ccc2oc(C(=O)NC3CC(C)(C)NC(C)(C)C3)c(C)c2c1	-2.6	/	2	-3	8%
COC(=O)c1c(NC(=O)CSc2nnc(Cn3nnc4ccccc43)n2C)sc(C)c1C	-1.2	-24	0	-1	5%
Cc1ccc(NC(=O)/C=C/C(=O)O)c(NC(=O)c2ccccc2)c1	2.0	/	-28	/	/
Cc1csc(CN(C)C(=O)C2CCC(=O)N(CCCc3ccccc3)C2)n1 (configuration not stated)	1.0	/	2	/	/
Cc1cc2c(cc1C)C(c1ccsc1)CC(=O)N2 (configuration not stated)	1.1	/	2	-9	4%
CC(O)CSc1nc2c(c(=O)[nH]c(=O)n2C)n1CC(O)COc1ccccc1 (configuration not stated)	-2.7	/	0	9	-3%
CCc1nnc(NC(=O)C2CCN(c3nccc(C)n3)CC2)s1	-0.5	-18	16	10	6%
CC(C)c1cc(C(=O)O)n[nH]1	-0.3	-58	5	-7	-1%
COc1ccc(OCCCC(=O)Nc2cccc([N+](=O)[O-])c2)cc1	0.6	-15	3	7	10%
Cc1ccc(C2=NO[C@@](CC(=O)O)(C(=O)Nc3ccc4c(c3)OCCO4)C2)cc1	5.5	/	-3	/	/
O=C(CNC(=O)c1nc[nH]c1C(=O)N1CCc2ccccc2C1)OCc1ccccc1	0.4	/	5	/	/
Cc1nc(N)sc1C(=O)NN	-3.2	/	-3	/	3%
Cn1c(CCNC(=O)c2ccco2)nc2ccccc21	-3.7	/	-13	/	/
O=C(NC1CCSc2ccccc21)c1cccc(S(=O)(=O)N2CCOCC2)c1 (configuration not stated)	-2.5	/	-3	/	/
CCOc1ccc(N2C(=O)CC(Sc3nc(O)c(CC)c(=O)[nH]3)C2=O)cc1 (configuration not stated)	0.3	/	-6	/	/
Cc1ccc(CNC(=O)C2CCC(=O)N2C(C)C)cc1 (configuration not stated)	0.5	/	10	/	/
COC(CNC(=O)C(=O)Nc1cc2c3c(c1)CC(=O)N3CCC2)OC	23	/	3	/	/
COc1ccc(NC(=O)C(NC(C)=O)C(=O)NCc2ccccc2OC)cc1 (configuration not stated)	-0.7	-45	-2	4	-5%
CC1(C)CC(=O)C2=C(C1)Nc1ccccc1NC2c1cccc(F)c1 (configuration not stated)	-1.8	/	4	/	/
Cc1cc(C)c(NC(=S)N(CCN(C)C)C(C)c2cccnc2)c(C)c1 (configuration not stated)	0.3	/	-7	-2	5%
COCCN(C(=O)COC(=O)CSc1ccc2ccccc2c1)c1c(N)n(Cc2ccccc2)c(=O)[nH]c1=O	-1.9	/	2	/	/
CC(=O)Oc1ccc(C(=O)Nc2ccccc2C(=O)NCC(C)C)cc1	5.7	-6	-7	-4	5%
COc1ccccc1NS(=O)(=O)c1cc(N)ccc1N1CCCCC1	3.1	/	1	4	4%
O=C(NNC1CC(=O)N(c2ccccc2)C1=O)c1ccco1 (configuration not stated)	-1.4	/	-1	0	-17%
Cc1cccc2cc(C#N)c(SCC(=O)NCc3cccs3)nc12	-1.4	-20	4	-4	-2%
CC1(C)CC(=O)C=C(Nc2ccccc2C#N)C1	-1.1	/	9	/	/
O=C(NCCNC(=O)c1cc(Cl)ccc1Cl)c1cnccn1	1.6	/	11	/	/
Cc1ccc(NC(=O)NC2(C(=O)NCc3ccco3)CCCCC2)cc1	-1.8	2	2	-2	0%

The results go on.
SMILES	RecA intein inh	YopH PTP inh	Mtb betalactam	Arbovirus anti	Mtb H37Rv	others
C=CCSc1n[nH]c(-c2ccc(OCCCC)cc2)n1	-0.3	5	98	-28	2%
NCCc1c(C(=O)O)[nH]c2ccc([N+](=O)[O-])cc12	-2.7	/	0	/	-8%
COc1ccc(CCNC(=O)c2ccc(CNS(=O)(=O)c3cc(C)ccc3C)cc2)cc1OC	2.6	-18	-3	-12	9%
C/C(=N\NC(=O)c1cccc(F)c1)c1cccc(NC(=O)c2ccc(F)cc2)c1	-0.8	/	2	10	-3%
COc1cc(NC(=O)C2CCN(c3cnccn3)CC2)cc(OC)c1	5.6	/	-5	/	/
CCCCNc1nc2c(c(=O)n(Cc3ccccc3)c(=O)n2C)n1C	-0.6	/	1	/	/
COc1cc2ccccc2cc1C(=O)NC(=S)Nc1cccc(C(=O)O)c1	5.6	/	-6	14	0%
CCO[C@H]1OC(C(=O)Nc2ccccc2)=C[C@@H](c2coc3ccccc3c2=O)[C@@H]1CCCO	3.1	/	17	-3	1%
O=C(CCc1nnc(CCC2CCCCC2)o1)NCCc1cccnc1	1.2	/	-5	-2	-6%

Bioassay records: PubChem, several laboratories

These rows are one share of the data. The share of hits here may be higher or lower than overall.
